Bioassay records (PubChem)
UCH37 inh = human UCH37 deubiquitinating enzyme inhibition; inhibition, % (concentration not given with the values); Q9Y5K5; purified proteasome/UCH37, Ub-AMC cleavage fluorescence; 330,000 compounds, 0.33% hits;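 active = mean of two replicates above 20%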;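 note: 0% = compound-free wells with enzyme and 100% = wells lacking proteasome; stock transfer was 100 nL into about 20 µL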
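Material: human UCH37 enzyme supplied as purified proteasome complex / Amount: 0.15 nM proteasome as dispensed / Buffer or medium: pH 7.4 Tris-HCl (50 mM) with ovalbumin, ATP-MgCl2, DTT / Times: preincubation 30 min, reaction 25 min, room temperature / Technique: AMC fluorescence from Ub-AMC cleavage, excitation 355 nm, emission 460 nm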
ALR H2O2 inh = inhibitors of human sulfhydryl oxidase ALR; inhibition, % (concentration not given with the values); purified ALR, DTT oxidation, H2O2 HRP-luminol luminescence; 290,000 compounds, 3.8% hits;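 active = mean and each replicate at 75% or more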;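 note: stock transfer was 7.5 nL into about 7.5 µL; 0% = neutral wells and 100% = wells with inactivated enzyme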
Target sequence (P55789 whole entry, looked up): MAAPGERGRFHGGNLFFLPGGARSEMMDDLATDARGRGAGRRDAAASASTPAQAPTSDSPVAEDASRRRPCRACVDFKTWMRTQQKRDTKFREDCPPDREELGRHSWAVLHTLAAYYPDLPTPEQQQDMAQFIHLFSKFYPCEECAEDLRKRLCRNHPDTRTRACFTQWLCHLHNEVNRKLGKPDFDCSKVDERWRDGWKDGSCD
LANA-H2B inh = blocks KSHV LANA binding to histone H2A/H2B. cell-free LANA-H2A/H2B peptide, fluorescence polarization. inhibition, % (test concentration not listed). AID 2629. Q9QR71. 320,000 compounds, 0.6% hits; in the data active = inhibition mostly above about 10%, no sharp cut-off; inactive = mostly below about 6.7%;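 note: stock transfer was 7.5 nL into about 10 µL; 0% = median of vehicle wells and 100% = median of positive control wells; one replicate is shown; the record names a cut of 25% in any replicate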
FGF22 binding = FGF22 (human) thermal shift binding; Q9HCT0; recombinant FGF22 thermal shift, SYPRO orange fluorescence; percent of sucrose octasulfate shift, DMSO zero; calls only at 9.99 µM; 340,000 compounds, 1.5% hits;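 active = melting point raised past a set limit in the mean and every replicate; three in four hits are not shown here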
Target sequence (Q9HCT0 whole entry, looked up): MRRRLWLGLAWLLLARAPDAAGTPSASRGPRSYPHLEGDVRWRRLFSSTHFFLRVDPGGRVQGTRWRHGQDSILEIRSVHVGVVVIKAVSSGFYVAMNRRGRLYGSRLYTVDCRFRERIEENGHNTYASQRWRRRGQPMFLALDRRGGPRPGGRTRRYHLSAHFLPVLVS
Beta2AR agonist = agonists of human beta-2 adrenergic receptor inducing internalization; Am2.2-beta2AR cells, FAP receptor internalization, flow cytometry; reference of the scale not given here; response, % (concentration not given with the values); 340,000 compounds, 0.43% hits; AID 504454;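 active = response above a set limit, near 3 SD of response in nonfluorescent compounds, cut at about 42% in these data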;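 note: stock transfer was 100 nL into about 11 µL; a reference agonist was the positive control; negative values mostly stem from fluorescent compounds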
Target sequence (P07550 whole entry, looked up): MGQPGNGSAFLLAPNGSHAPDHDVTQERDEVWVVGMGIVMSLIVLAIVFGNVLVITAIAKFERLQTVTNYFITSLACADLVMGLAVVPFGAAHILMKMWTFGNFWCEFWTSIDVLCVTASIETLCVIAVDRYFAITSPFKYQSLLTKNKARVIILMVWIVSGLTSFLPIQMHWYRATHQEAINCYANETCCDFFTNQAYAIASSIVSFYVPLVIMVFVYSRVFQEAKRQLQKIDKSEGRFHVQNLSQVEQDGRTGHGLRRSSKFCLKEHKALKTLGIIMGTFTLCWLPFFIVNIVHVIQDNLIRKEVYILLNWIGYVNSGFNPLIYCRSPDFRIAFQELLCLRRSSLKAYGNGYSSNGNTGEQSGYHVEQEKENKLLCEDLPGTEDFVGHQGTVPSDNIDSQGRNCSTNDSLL
Ecoli growth = E. coli growth inhibition. Escherichia coli growth, OD600, 23 h; active compounds read low. 330,000 compounds, 0.21% hits. AID 1053175. OD600 absorbance (test concentration not listed);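 active = OD600 absorbance below the run mean of sample wells minus 3.6 SD, in any replicate, cut at about 0.56 in these data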;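 note: stock transfer was 300 nL into about 60 µL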
HNF4A DNA FP = change in binding of human HNF4 alpha to DNA | 360,000 compounds, 0.3% hits | HNF4a-FITC DNA binding, fluorescence polarization, 1 h | activity change, % at 10 µM | P41235; in the data active = activity change above about 30%, passing the limit was not always enough;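 note: controls were the assay level and a saturating level of protein; the project sought stronger binding though the title names inhibitors; some compounds called inactive have numbers as strong as hits; positive values seem to mean higher polarization but the record does not say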
An asterisk follows results filed as active; i = inactive; · = not tested or not shown. This is a subset, so the mix of outcomes need not match the whole.

SMILES | UCH37 inh | ALR H2O2 inh | LANA-H2B inh | FGF22 binding | Beta2AR agonist | Ecoli growth | HNF4A DNA FP
Cc1cc(SCc2cccc(C(F)(F)F)c2)nc(=O)[nH]1 | 2.6 | 14 | -2.0 | · | 7 | 0.68 | 25
C[C@]12CCC3c4ccc(O)cc4CCC3C1CC/C2=N\N (stereo partly specified) | · | -4 | 0.7 | i | -2 | · | -1.2
CN1C=CC=C/C1=C1\SC(=S)N(C2CCCCC2)C1=O | 14 | 99* | 2.8 | · | -11 | 0.7 | 11
CC(NS(=O)(=O)c1ccc(CCC(=O)NCc2ccco2)cc1)c1ccccc1 (stereo unspecified) | 7.0 | -5 | 1.0 | · | -2 | 0.68 | -3.5
O=C(N/C(=C/c1cccnc1)C(=O)N1CCOCC1)c1ccccc1Cl | 2.8 | · | -4.3 | i | 1 | 0.68 | -2.8
CC(C)CC(=O)N1CCN(S(=O)(=O)c2ccccc2)CC1 | 3.2 | -9 | 3.4 | · | -3 | 0.71 | 1.9
Cc1ccc(-n2ncc3c(=O)n(CC(N)=O)cnc32)cc1C | -1.5 | 2 | -4.5 | i | -7 | 0.7 | -0.7
O=C(COc1ccc(F)cc1)NCCCn1ccnc1 | 3.4 | · | · | i | -3 | 0.69 | -0.2
O=C(COC(=O)C1=COCCO1)Nc1cc(C(F)(F)F)ccc1Cl | -0.4 | 0 | 0.7 | i | 4 | 0.7 | 2.6
CCc1cc2c(=O)[nH]c(N3CCOCC3)nc2s1 | 3.4 | 11 | 0.2 | · | 3 | 0.74 | -1.5
COc1ccccc1CN(C)CC(=O)Nc1ccc(Cl)cc1C(F)(F)F | -0.4 | -2 | 2.4 | i | 0 | 0.71 | -0.5
OCCC1CN(Cc2cccn2-c2cccnc2)CCN1C1CCCC1 (stereo unspecified) | 0.2 | -13 | 2.7 | i | -11 | 0.7 | 2.3
O=C(O)c1cc2c(=O)c3ccccc3oc2nc1C(F)(F)F | -13 | · | -0.8 | i | -1 | 0.72 | -1.4
Cn1c(N)c(C(=O)COC(=O)/C=C/c2cccc(Cl)c2)c(=O)n(C)c1=O | -1.1 | -2 | -1.3 | i | 0 | 0.67 | -31
CN(C)c1ccc(C2Nc3ccccc3C(=O)N2CCCN2CCOCC2)cc1 (stereo unspecified) | -6.6 | 99* | -0.5 | i | 1 | 0.67 | 3.5
O=C(Oc1ccc2c(c1)OCO2)c1ccc(Br)c(S(=O)(=O)N2CCOCC2)c1 | 1.5 | -27 | 3.6 | · | 1 | 0.68 | 0.1
COCCCn1c2nc3ccccc3nc2c2c(=O)n(-c3ccccc3OC)cnc21 | -22 | -4 | 3.1 | · | 6 | 0.74 | -4.6
COC(=O)c1sc(N)c(C(=O)OC)c1CSc1nc2sc3c(c2c(=O)n1C)CCC3 | 7.0 | 4 | 1.6 | · | -1 | 0.71 | -1.7
CCN1CCN(c2ccc(S(=O)(=O)N3CCOCC3)cc2NC(=O)c2ccc(Cl)cc2Cl)CC1 | 2.0 | -8 | -6.0 | i | -4 | 0.72 | 3.4
Cc1cccc(C(=O)OCC(=O)Nc2c(C)nn(-c3ccccc3)c2C)c1O | -4.4 | -3 | -1.7 | i | -3 | 0.69 | -0.3
c1ccc2c(c1)CCN(c1nc3ccccc3n3cnnc13)C2 | -3.2 | 0 | -6.7 | i | -24 | 0.67 | -0.4
CCOC(=O)c1cc(S(=O)(=O)N2CCOCC2)cn1C | 2.1 | -9 | 4.4 | i | 4 | 0.71 | 0.2
Cc1cc(NC(=O)C(C)SCC(=O)OCC(=O)N(C)c2ccccc2)no1 (stereo unspecified) | -1.4 | 0 | 3.2 | i | -4 | 0.71 | -5.1
CC(C)NS(=O)(=O)c1ccc(CCC(=O)Nc2cc(Cl)ccc2Oc2ccccc2)cc1 | 5.4 | -7 | -1.0 | · | -9 | 0.79 | -3.5
CC(C)(C)C(=O)Nc1ccc(N2CCN(S(C)(=O)=O)CC2)cc1 | 1.0 | -1 | 2.1 | i | 7 | 0.67 | 0.8
O=C(c1cc(-c2ccc(Cl)cc2)on1)N1CCCC1 | 5.7 | -6 | 0.1 | i | -14 | 0.69 | -0.5
Cc1cc2nn(-c3ccc(F)cc3)nc2cc1N | i | -22 | 6.5 | i | 11 | 0.73 | -1.5
COc1ccc(OCCNC2CCCC2)cc1 | 4.1 | -15 | -87 | i | -1 | 0.74 | 0.5
O=C(CCCCCNC(=O)N1CCn2c1nc1ccccc12)NCc1ccc(Cl)cc1 | -0.7 | -30 | -0.1 | i | 1 | 0.66 | -1.8
CCOC(=O)C1CCCN(Cc2cn(C)nc2-c2ccc3c(c2)OCCO3)C1 (stereo unspecified) | 1.5 | -4 | -3.3 | i | 2 | 0.68 | -4.9
O=C(/C=C/Nc1cccc([N+](=O)[O-])c1)c1cccs1 | 6.7 | -3 | -1.8 | · | -7 | 0.7 | 4.9
CN1c2ccccc2C(C)(C)[C@]12C=Cc1cc(O)ccc1O2 | 3.3 | 88* | -6.7 | · | -5 | 0.73 | 14
COc1ccc(CC(=O)Nc2cccc3c2CCCC3)cc1 | 2.5 | -5 | 1.1 | i | 8 | 0.69 | 0.1
COc1ccccc1N(Cc1cc(=O)[nH]c2ccccc12)C(C)=O | 4.0 | · | 3.8 | i | -1 | 0.66 | 2.1
CC(NC(=O)C(=O)N1CCCCC1)C(c1cccs1)N1CCN(c2ccc(F)cc2)CC1 (stereo unspecified) | -1.0 | 98* | -1.8 | i | 4 | 0.68 | -2.2
O=c1[nH]cnc2scc(-c3ccc(F)cc3)c12 | 2.0 | 1 | 2.0 | · | 8 | 0.7 | 2.6
CCC1Oc2ccccc2N(CC(=O)NCCCN2CCN(CC)CC2)C1=O (stereo unspecified) | -3.7 | 3 | -4.5 | i | 3 | 0.69 | -0.2
CCN(c1cccc(C)c1)S(=O)(=O)c1ccc2c(c1)N(C(C)=O)CCS2 | 1.3 | -38 | · | i | 9 | 0.68 | 3.5
COCCn1cnc2c1c(=O)n(CC(=O)NC(=O)NC(C)(C)C)c(=O)n2Cc1ccccc1 | 1.8 | -2 | 0.9 | i | -7 | 0.68 | 3.6
CCC(C)(C(=O)Nc1ccccc1C)N(C(=O)CNC(C)=O)c1ccccc1C (stereo unspecified) | 0.7 | -5 | 1.3 | · | -1 | 0.72 | 0.8
N#Cc1ccc(C(=O)OCC(=O)Nc2cccc(S(=O)(=O)NC3=NCCC3)c2)cc1 | 4.3 | -6 | 5.0 | i | 4 | 0.69 | -3.6
CN(Cc1cccs1)S(=O)(=O)c1cccs1 | 0.7 | -16 | -5.1 | · | -3 | 0.72 | 3.6
CCCOc1ccc(C(=O)NC(=S)NCc2cccnc2)cc1 | -1.3 | 3 | -2.7 | i | -8 | 0.6 | -0.4
COC(=O)C1=C(NC(=O)CCCCl)CCS1 | 6.1 | 14 | 5.0 | · | 5 | 0.74 | 1.3
CCCN(CC(=O)Nc1ccccc1C)C(=O)c1cccc(-n2cnnn2)c1 | -0.5 | -2 | 3.7 | i | 4 | 0.7 | 2.3
CCCOP(=O)(c1ccccc1)c1ccccc1 | -0.6 | -2 | 1.6 | i | 2 | 0.67 | -6.7
COc1ccc(NC(=O)c2cnc3n(c2=O)CCS3)cc1OC | 11 | -7 | 0.6 | i | -26 | 0.76 | -2.2
CC1CCCCN1CC(=O)NC(c1ccccc1)c1ccccc1 (stereo unspecified) | 1.5 | -8 | 5.6 | i | 1 | 0.68 | 0.6
Cc1ccc(-c2nc(CS(=O)(=O)CC(=O)NCCCN3CCN(C)CC3)c(C)o2)cc1 | 2.7 | -32 | 6.3 | i | 13 | 0.78 | -3.1
O=C(COc1ccccc1-c1ccccc1)N/N=C/c1ccncc1 | · | -19 | -1.9 | i | 8 | · | 3.4
(more compounds)
SMILES | UCH37 inh | ALR H2O2 inh | LANA-H2B inh | FGF22 binding | Beta2AR agonist | Ecoli growth | HNF4A DNA FP
CC1=C(C(=O)Nc2ccccc2)C(c2ccncc2)n2nnnc2N1 (stereo unspecified) | 4.1 | -2 | 0.9 | · | 4 | 0.68 | 0.0
CC(C)(O)CN(C(=O)C(c1ccccc1)c1ccccc1)C1CCCCC1 | · | · | · | i | 4 | · | -0.7
Cc1cc(NS(=O)(=O)c2ccc3c(c2)OCCO3)no1 | 2.2 | -1 | 0.5 | i | -5 | 0.66 | 0.1
Cc1cc(C)n2nc(-c3ccccc3)c(-c3ccccc3)c2n1 | -91 | · | -3.8 | i | -1 | 0.72 | 2.5
Cc1cc(C)nc(NC(=O)c2cccc(Br)c2)n1 | 1.0 | · | 1.1 | i | -4 | 0.66 | 1.6
CCOC(=O)n1c(SCC(N)=O)nc2ccccc21 | -0.2 | 2 | 7.6 | · | -1 | 0.68 | -0.3
Cc1ccc(N2C(=O)C(CC(=O)Nc3cccc(F)c3)N(C3CC3)C2=O)cc1 (stereo unspecified) | 2.2 | 79* | 3.4 | i | 1 | 0.71 | 6.0
COc1ccc(-c2nnc(SCC(=O)NC3CCCC3)n2C)cc1 | 3.6 | 2 | -0.1 | i | -2 | 0.64 | -3.4
Cc1cc(C)c2c(c1)NC(c1cc3c(cc1Br)OCO3)C1CC=CC21 (stereo unspecified) | 1.7 | · | 3.5 | · | 10 | 0.73 | 3.2
CCCCC(c1nnnn1Cc1ccco1)N1CCN(C(=O)c2ccco2)CC1 (stereo unspecified) | 1.8 | 5 | 4.8 | · | -10 | 0.73 | 1.1

Laid out differently: entries from further up.
Value order – UCH37 inh, ALR H2O2 inh, LANA-H2B inh, FGF22 binding, Beta2AR agonist, Ecoli growth, HNF4A DNA FP
CC(C)(O)CN(C(=O)C(c1ccccc1)c1ccccc1)C1CCCCC1
→ ·, ·, ·, i, 4, ·, -0.7
Cc1cc(NS(=O)(=O)c2ccc3c(c2)OCCO3)no1
→ 2.2, -1, 0.5, i, -5, 0.66, 0.1
Cc1cc(C)n2nc(-c3ccccc3)c(-c3ccccc3)c2n1
→ -91, ·, -3.8, i, -1, 0.72, 2.5
Cc1cc(C)nc(NC(=O)c2cccc(Br)c2)n1
→ 1.0, ·, 1.1, i, -4, 0.66, 1.6
CCOC(=O)n1c(SCC(N)=O)nc2ccccc21
→ -0.2, 2, 7.6, ·, -1, 0.68, -0.3
Cc1ccc(N2C(=O)C(CC(=O)Nc3cccc(F)c3)N(C3CC3)C2=O)cc1 (stereo unspecified)
→ 2.2, 79*, 3.4, i, 1, 0.71, 6.0
COc1ccc(-c2nnc(SCC(=O)NC3CCCC3)n2C)cc1
→ 3.6, 2, -0.1, i, -2, 0.64, -3.4

(continued)
SMILES | UCH37 inh | ALR H2O2 inh | LANA-H2B inh | FGF22 binding | Beta2AR agonist | Ecoli growth | HNF4A DNA FP
CCC1=NN2C(=N)/C(=C\c3ccc(OCCOc4ccc(NC(C)=O)cc4)cc3)C(=O)N=C2S1 | 5.7 | 11 | -5.4 | i | 2 | 0.69 | -7.3
COCCNC(=O)C1CC(=O)N(c2ccc(OC)cc2)C1c1ccc(OC)cc1 (stereo unspecified) | 5.5 | -1 | -0.9 | i | 2 | 0.66 | 1.1
Cc1c(NC(=O)/C(C#N)=C\c2cccs2)c(=O)n(-c2ccccc2)n1C | 9.3 | 2 | -3.2 | · | 1 | 0.66 | 1.4
Cc1sc2nc(CSc3nnc(Cc4cccs4)n3C3CCCCC3)[nH]c(=O)c2c1C | 1.5 | -2 | -5.4 | · | -1 | 0.74 | 30
CN(Cc1ccccc1)C(=O)CCC1CCN(C(=O)c2ccccc2C(F)(F)F)CC1 | 5.1 | -4 | -1.4 | i | 5 | 0.68 | 1.5
Cc1coc2cc3oc(=O)c4c(c3cc12)CCC4 | -45 | -1 | -0.5 | · | · | 0.74 | ·
Cc1ccc(S(=O)(=O)CCc2nnc(NC(=O)COc3cccc(C)c3)s2)cc1 | 2.9 | · | -0.8 | i | 8 | 0.76 | 1.8
C=CCN1C(=O)/C(=c2\sc3nc(=O)c(Cc4ccc(OC)c(OC)c4)nn3c2=O)c2ccccc21 | · | 20 | 0.9 | i | 6 | · | 1.4
